# Screening data (PubChem BioAssay)
# PrP UTR inh = suppresses PrP 5' UTR mRNA reporter expression. cell-based PrP 5' UTR mRNA reporter, plate reader. 340,000 tested, 0.35% active. AID 488862. inhibition, % (concentration not given with the values);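 active = every replicate at 50% or more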;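 also: 0 = median of the neutral control wells; tested in H4 reporter cells; numbers are from one replicate; inactives centre near -14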
# BJeLR lethal = BJeLR cell viability loss. 300,000 tested, 0.17% active. inhibition, % (no concentration beside the values). BJeLR (HRASV12) viability, CellTiter-Glo ATP luminescence, 48 h; reference of the scale not given here. AID 1554;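 active = replicate mean above 50%; inconclusive = above 50% but judged a plate artefact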;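 also: 50 nL library stock added to about 25 µL; numbers are from one replicate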
# Autofluor counter = compound fluorescence in toxin protease inhibitor counterscreen; fluorescence intensity (concentration not given with the values); 360,000 tested, 3.1% active; compound autofluorescence counterscreen, microsphere flow cytometry; stronger effect = higher value;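 active = at least 3 SD above the mean of all compounds, about 16000 in these data; inconclusive = too few beads counted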;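 also: 100 nL of 1 mM stock went into each well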
# Sa ugtP lethal = kills S. aureus RN4220 lacking UgtP; 330,000 tested, 0.54% active; growth inhibition, % (concentration not given with the values); AID 1259309; S. aureus RN4220 ugtP deletion, OD600 growth, 16 h; some inactives read as strong as hits;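 active = z-score under -3 and OD600 up to 0.15 on both plates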;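 also: plate controls were untreated wells for no effect and antibiotic for full effect; wells of about 80 µL received 100 nL stock; the first replicate is given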
# RN4220 kill = kills Staphylococcus aureus RN4220. S. aureus RN4220 growth, OD600, 16 h. inhibition, % (concentration not given with the values). 330,000 tested, 0.33% active;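 active = z-score of -3 or lower and OD600 up to 0.18 on both plates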;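 also: plate controls were untreated cells for no effect and reference antibiotic for full effect; stock transfer was 100 nL into about 80 µL; one replicate is shown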
# Mtb hypoxia inh = reduces hypoxia-regulated biosensor signal in M. tuberculosis. M. tuberculosis hypoxia-regulated fluorescent reporter, fluorescence. fluorescence inhibition, % (no concentration beside the values). 300,000 tested, 0.1% active;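 active = 35 to 45% if threefold the growth effect, above 45% if 1.5-fold the growth effect; inactive = the rest, general growth blockers included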;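 also: wells of about 50 µL received 100 nL stock; 0% = vehicle wells and 100% = reference inhibitor wells; whole bacteria with a GFP reporter of the hypoxia response; strong numbers were not always called active; many hits fall short of the cut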
# Mtb hypoxia inh growth = also measured in Mtb hypoxia inh; calls as there; growth inhibition, %; measured here: M. tuberculosis growth (absorbance);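 0% = vehicle and 100% = reference antibiotic; read after six days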
# * marks the source's active call; other numbers are inactive results; ? = inconclusive; nt = no result given; & = joins results of further samples.
entry	structure	Sa ugtP lethal	Mtb hypoxia inh	Autofluor counter	PrP UTR inh	BJeLR lethal	RN4220 kill	Mtb hypoxia inh growth
1	Cc1nc(=O)c(-c2ccccc2)c(C)n1CC1CCCO1 (centres undefined)	0	5	2991	-12	1	5.0	3
2	CS(=O)(=O)N1CCCC(C(=O)NCCCN2CCOCC2)C1 (centres undefined)	-2	8	11732	0	2	-0.9	10
3	CC(=O)OCc1ccccc1Sc1ccccc1C(=O)NCc1ccccc1	7	-4	5359	-21	-6	-3.5	-3
4	Cc1cc(=O)cc(C)n1-c1ccc(O)cc1	2	2	4605	-28	-2	3.9	-2
5	O=C(NCc1ccccc1)/C(=C/c1ccc(OC(F)F)cc1)c1ccccc1	29	10	2390	0	3	-0.3	2
6	CN(CC(=O)Nc1ccccc1[N+](=O)[O-])Cc1ccc(Br)cc1	-3	13	4984	-5	-5	3.4	11
7	Cn1c(SCC(=O)NC2CCS(=O)(=O)C2)nc2ccccc21 (centres undefined)	0	-9	2784	-4	nt	2.4	-4
8	O=[N+]([O-])c1ccc(C2CNC(c3ccccc3)O2)cc1 (centres undefined)	7	8	8824	-27	5	4.4	9
9	COc1ccc(Cc2nc(-c3ccc(-n4cccc4)cc3)no2)cc1	-4	nt	6133	-14	8	-3.0	nt
10	Cc1cccc(C)c1NC(=O)CSCC(=O)c1ccc(O)c(O)c1	7	6	9418	-5	-5	-3.4	-1
11	CCC(C)[C@H](NC(=O)N1CC(=O)Nc2ccccc21)C(=O)N[C@H](Cc1ccccc1)C(=O)O (some centres undefined)	-10	nt	5536	-15	-4	7.6	nt
12	COc1cc(OC)cc(C(=O)NCC(=O)OCC(=O)N2c3ccccc3NC(=O)C2(C)C)c1	3	14	3245	-31	2	5.2	14
13	COc1cccc(NC(=O)Cn2c(=O)n(-c3ccccc3)c(=O)c3oc4ccccc4c32)c1	nt	nt	2084	-1	-11	nt	nt
14	CCCCN(C(=O)c1oc2ccc(OCC)cc2c1C)c1c(N)n(CC(C)C)c(=O)[nH]c1=O	4	8	6356	-30	-4	4.6	6
15	O=C(N1CCN=C1SCc1cccnc1)C12CC3CC(CC(C3)C1)C2	1	nt	4508	-11	2	2.6	nt
16	CCCOc1ccc(/C=C/C(=O)N2CCN(c3ccccn3)CC2)cc1	4	8	4620	-5	4	-1.0	19
17	CC(C)CCN1CCN(Cc2cccc3nonc23)CC1CCO (centres undefined)	8	10	2511	-23	4	0.0	0
18	CCOc1ccc(C(=O)NCC(=O)OCc2c(F)cccc2Cl)cc1OCC	nt	nt	2407	-8	7	nt	nt
19	O=C(NCCc1ccccc1)C(c1cccs1)N(C(=O)CCl)c1ccc(Cl)cc1 (centres undefined)	-6	19	2760	-3	117*	54	5
20	O=C(NCc1cccnc1)c1cccc(S(=O)(=O)Nc2ccc(F)cc2)c1	3	3	?	-5	nt	1.7	3
21	C#Cc1ccc([C@@H]2C=C(C(=O)NC3CC3)O[C@H](OCC)[C@H]2CCCO)cc1	nt	nt	3624	-23	-2	nt	nt
22	CC(=NNC(N)=S)c1cc(-c2ccccc2)c(-c2ccccc2)s1	8	21	nt	nt	nt	8.3	11
23	CCN(CC)CCCn1c(SCC(=O)NCC2CCCO2)nc2ccccc2c1=O (centres undefined)	-2	-10	?	-2	nt	0.5	4
24	O=C(N=Nc1c(O)[nH]c2ccc(Br)cc12)c1ccccc1-n1cccc1	-22	24	24096*	9	-4	3.0	10
25	C=CCNC(=S)Nc1ccc2cn[nH]c2c1	7	6	3325	0	-3	1.2	-12
26	O=C(NCC(=O)N(c1ccccc1)C(C(=O)NC1CCCCC1)c1cccnc1)c1cccs1 (centres undefined)	3	11	2549	-19	-4	4.4	11
27	Cc1cc(S(=O)(=O)N(Cc2ccc(F)cc2)CC2CCCO2)ccc1-n1cnnn1 (centres undefined)	3	14	12739	-3	6	1.0	3
28	O=C(OCC(=O)N1CCCC1)c1ccco1	-8	-1	3382	-10	-6	-0.6	1
29	COc1ccccc1NS(=O)(=O)c1cccc(C(=O)N/N=C(\C)c2ccc(-n3ccnc3)cc2)c1	nt	nt	3816	-3	7	nt	nt
30	CCOC(=O)c1c(C)[nH]c(C(=O)OCC(=O)Nc2cc(C)nn2-c2ccccc2)c1C	-4	-4	nt	-15	3	-4.6	-2
31	CCC(C)[C@H](NC(=O)NCc1cccs1)C(=O)O (some centres undefined)	0	12	2260	-18	9	-8.9	2
32	CCOC1OC(C(N)=O)=CC(C2CCCCC2)C1CCCO (centres undefined)	0&-3	4&-8	nt	nt	nt	3.9&2.8	4&-11
33	O=C1/C(=C/c2cccnc2)SC(=S)N1c1ccccc1	15	3	2277	-16	nt	0.6	7
34	CCCSc1cc(N2CCOCC2)nc(-c2ccccc2Cl)n1	65	2	3054	-6	-3	-5.5	12
35	N#CCOc1ccccc1P(=O)(c1ccccc1)c1ccccc1	8	18	2923	-12	-16	1.4	0
36	O=C(CSc1nnc(NC(=O)c2ccccc2[N+](=O)[O-])s1)NCC1CCCO1 (centres undefined)	4	-4	5872	-3	-8	0.1	2
37	CCCCn1c(N)c(N(CCOC)C(=O)c2cc(-c3ccncc3)nc3ccccc23)c(=O)[nH]c1=O	6	5	5814	-17	10	3.5	-17
38	NC(COc1ncn(-c2ccccc2)n1)=NS(=O)(=O)c1ccc(Cl)cc1Cl	-7	6	nt	nt	nt	6.1	5
39	N=c1c(C(=O)NC2CCCCC2)cc2c(=O)n3ccccc3nc2n1Cc1ccccc1	5	3	5500	-2	-8	0.1	4
40	CNC(=O)N(O)C1N(/N=C/c2ccc(C)cc2)C(=S)SC1(C)C (centres undefined)	nt	nt	3689	-19	-6	nt	nt
41	Cc1[nH]n(-c2nc(-c3ccccc3)cc(=O)[nH]2)c(=O)c1CCO	10	3	3433	-10	8	7.2	-3
42	CCc1nnc(SCC(=O)Nc2ccc3c(c2)OCO3)n1CC	12	16	6720	-19	-3	-0.7	10
43	COc1ccc(C)cc1NC(=O)c1ccc2c(=O)n3c(nc2c1)CCCCC3	-5	-2	nt	-19	-3	5.7	3
44	CCCCSC(=O)Nc1ccccc1	-1	nt	3072	-36	2	6.0	nt
45	COc1cc(C(=O)NCC(=O)NN=Cc2ccco2)cc(OC)c1OC	3	0	nt	nt	nt	2.0	-7
46	C=CCNC(=O)c1c(N)n(CCN2CCOCC2)c2nc3ccccc3nc12	4	1	12632	-16	-10	3.0	5
47	COc1cccc(-c2c(NC(=O)c3ccco3)oc3ccc(Cl)cc3c2=O)c1	-13	0	5709	-10	11	-12	12
48	CCOC(=O)C1CCN(C(=S)NC2CC3C=CC2C3)CC1 (centres undefined)	2	19	nt	-33	-8	3.1	9
49	CSc1nc2ccc(N3C(=O)C4CCCCC4C3=O)cc2s1 (centres undefined)	0	-2	8088	-11	3	-2.3	-4
50	COc1ccccc1/C=C\C=N\NC(=O)CCn1nnc2ccccc21	nt	nt	2026	-19	-6	nt	nt

# Additional entries follow.
entry	structure	Sa ugtP lethal	Mtb hypoxia inh	Autofluor counter	PrP UTR inh	BJeLR lethal	RN4220 kill	Mtb hypoxia inh growth
51	CC1=Nc2ncnn2C(c2ccccc2)C1=NO (centres undefined)	1	-4	nt	nt	nt	2.2	-7
52	Cn1c(CN2CCCC2)nc2cc(NC(=O)Nc3ccccc3)ccc21	11	-2	8790	-43	-7	4.2	4
53	O=C(NCc1ccco1)c1cnc2ccccn2c1=O	13	0	5023	-37	7	5.4	12
54	CCc1cccc2c(C=C(C#N)C#N)cn(CC(=O)N3CCCCCC3)c12	7	6	7322	-23	1	0.3	8
55	Cc1cccc2nc(Cn3c(=O)n(CCC(=O)NCc4ccco4)c(=O)c4sccc43)cc(=O)n12	-7	0	20173*	-18	-10	-2.1	1
56	Cc1ccc(S(=O)(=O)/N=C(\CN2CCOCC2)N2CCOCC2)cc1	nt	nt	9804	-12	-9	nt	nt
57	CCc1ccc(-c2cnc3nc[nH]c(=O)c3n2)cc1	1	2	4077	-15	-7	6.0	6
58	O=C(COC(=O)c1cnccn1)Nc1ncc(Cl)cc1Cl	1	0	6691	-19	3	0.7	-3
59	CC1(C)C([N+](=O)[O-])C(c2ccc(F)cc2)NC(c2ccc(F)cc2)C1[N+](=O)[O-] (centres undefined)	-14	-13	4254	-7	-4	-2.3	-2
60	O=C(NCc1ccc2c(c1)OCO2)c1cccc(S(=O)(=O)N2CCOCC2)c1	1	3	8254	4	4	1.7	5
61	CCOC(=O)c1c[nH]c2c(C(=O)c3ccccc3)cc(Cl)cc2c1=O	2	-1	3680	-5	5	2.0	17
62	COc1ccccc1NC(=O)C(=O)N/N=C/c1cccs1	nt	nt	1911	-57	-17	nt	nt
63	CC(C)CCNC(=O)CSc1nnc(-c2ccc(S(=O)(=O)N3CCCC3)cc2)n1C	3	7	5335	-14	0	3.3	9
64	COC(=O)c1ccc(N2CCN(C)CC2)c(NC(=O)COc2ccc(OC)cc2)c1	-1	5	6607	-3	11	4.7	19
65	O=C1CC(=O)CC(c2ccccc2Cl)C1	-6	6	4330	-7	-5	0.0	4
66	CCCc1nc2ccc(NC(=O)NCCC(=O)OCC)cc2c(=O)n1Cc1cccc(Cl)c1	-17	7	2125	-6	5	3.2	5
67	CC(=O)c1c(C)[nH]c(C(=O)NCc2ccco2)c1C	9	7	5203	-10	-2	4.0	3
68	COc1ccc(/C=C2\Oc3cc(OCC(=O)N4CCC[C@H]4CO)ccc3C2=O)c(OC)c1	4	nt	6365	-16	3	3.9	nt
69	CC(=O)Cc1nsc(NC(=O)c2cccc(F)c2)n1	5	1	2294	-46	-5	1.7	5
70	COc1cccc(CNS(=O)(=O)c2ccc3c(c2)NC(=O)CS3)c1	7	1	5215	-10	-7	8.3	2
71	O=C(c1ccco1)N1CCN(Cc2nnc(-c3ccccc3F)o2)CC1	8	4	3071	-16	-1	7.1	5
72	COc1ccc(Cl)cc1NC(=O)CNCc1cccs1	0	17	3124	-2	-6	-0.4	6
73	COc1ccc(N2CCN(c3ccc(NC(=O)NN)cc3)CC2)cc1	4	7	3307	-8	-2	0.8	-4
74	COc1cc(C=NNC(=O)CNC(=O)/C=C/c2ccco2)cc(OC)c1OC	2	-3	nt	nt	nt	0.3	-4
75	COc1ccc2oc(C(=O)OCC(=O)NC(C)(C#N)C3CC3)c(C)c2c1 (centres undefined)	3	2	?	-7	7	4.6	10
76	Cc1nn(Cc2ccc([N+](=O)[O-])cc2)c(=O)n1-c1ccc(F)cc1	1	3	?	-26	0	2.7	2
77	CCOc1ccc(N2C(=O)/C(=C/c3ccccc3)N=C2SC)cc1	-8	-1	4309	-19	21	3.5	-7
78	C=CCSc1nnc(NC(=O)CCNC(=O)c2ccco2)s1	5	-4	3527	-13	-1	0.3	8
79	CCOC(=O)Cc1nc2ccccc2[nH]1	7	6	11573	-17	-3	3.7	11

# Quoted at random: 5 compounds from above, in no set order.
entry	structure	Sa ugtP lethal	Mtb hypoxia inh	Autofluor counter	PrP UTR inh	BJeLR lethal	RN4220 kill	Mtb hypoxia inh growth
29	COc1ccccc1NS(=O)(=O)c1cccc(C(=O)N/N=C(\C)c2ccc(-n3ccnc3)cc2)c1	nt	nt	3816	-3	7	nt	nt
52	Cn1c(CN2CCCC2)nc2cc(NC(=O)Nc3ccccc3)ccc21	11	-2	8790	-43	-7	4.2	4
32	CCOC1OC(C(N)=O)=CC(C2CCCCC2)C1CCCO (centres undefined)	0&-3	4&-8	nt	nt	nt	3.9&2.8	4&-11
5	O=C(NCc1ccccc1)/C(=C/c1ccc(OC(F)F)cc1)c1ccccc1	29	10	2390	0	3	-0.3	2
9	COc1ccc(Cc2nc(-c3ccc(-n4cccc4)cc3)no2)cc1	-4	nt	6133	-14	8	-3.0	nt

# Part of the list above in order of SMILES length, smallest number first.
entry	structure	Sa ugtP lethal	Mtb hypoxia inh	Autofluor counter	PrP UTR inh	BJeLR lethal	RN4220 kill	Mtb hypoxia inh growth
79	CCOC(=O)Cc1nc2ccccc2[nH]1	7	6	11573	-17	-3	3.7	11
73	COc1ccc(N2CCN(c3ccc(NC(=O)NN)cc3)CC2)cc1	4	7	3307	-8	-2	0.8	-4
75	COc1ccc2oc(C(=O)OCC(=O)NC(C)(C#N)C3CC3)c(C)c2c1 (centres undefined)	3	2	?	-7	7	4.6	10
76	Cc1nn(Cc2ccc([N+](=O)[O-])cc2)c(=O)n1-c1ccc(F)cc1	1	3	?	-26	0	2.7	2
